# Bioassay records (PubChem BioAssay)
# Methyltransferases: Primary Screen for Target Class Profiling of Small Molecule Inhibitors of Methyltransferases | purified enzyme, MTase-Glo SAH luminescence; stronger effect = lower value | calls only at 40 µM | 25,000 tested, 3.9% active | AID 1745853, 2022; active = -50% or lower on at least one of six enzymes; inconclusive = the cases between; inactive = as a rule above -30% on all six;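 also: enzymes were COMT GAMT GNMT HNMT NNMT and PNMT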
#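 Each enzyme was reacted with SAM and its substrate, with compounds tested once at 40 uM; SAH formed was read by MTase-Glo luminescence.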
# Calls only; i = inactive; ? = inconclusive; + = active, no number; ! = not confirmed by another sample. % is scaled to controls: 0 for no effect and ±100 for the full control effect. An excerpt. The share of hits here may be higher or lower than overall.
no.	compound	Methyltransferases
1	C[C@H]1[C@@H]2[C@@H](O)C([C@H](C)C(=O)NCc3ccc(F)cc3)CC[C@@]2(C)CC[C@@H]1NC(=O)Cc1ccccc1 (stereo partly specified)	i
2	Cc1ccc(NS(=O)(=O)c2cc3c(cc2NCCO)NC(=O)CC3)cc1C	?
3	O=C(c1ccc(C(F)(F)F)cc1)N1CCC2(C1)C(=NC1CCCCC1)NC(=O)N2c1cccnc1 (stereo unspecified)	i
4	Cc1ccc(C(=O)N2CCC3(CC2)CC(c2ccccc2)C(=O)N3C)s1 (stereo unspecified)	i
5	CC(C)NC(=O)c1ccccc1OCC1CCCN(Cc2cccnc2)C1 (stereo unspecified)	i
6	Cc1nnc([C@H]2CCN(Cc3cnc4ccccc4c3)C2)o1	i
7	COCCOCc1nc(C2CCCN2C(=O)Cc2cccc(F)c2)no1 (stereo unspecified)	i
8	COc1ccc(-c2cc3n(n2)CC(C)(C(=O)NC2CCCCC2)N(C2CCCCCC2)C3=O)cc1 (stereo unspecified)	i
9	CC1(CNC(=O)c2n[nH]c3ccccc23)CCOCC1	i
10	CCOC(=O)C1CCCN(c2nc3c(S(=O)(=O)c4ccc(C)c(C)c4)nnn3c3ccccc23)C1 (stereo unspecified)	i
11	CCOc1ccccc1CNC(=O)CCn1ccc2cc(S(=O)(=O)N3CCCCC3)ccc21	i
12	COc1cc(/C=C/C(=O)N2CCN(CC(=O)N3CCCC3)CC2)cc(OC)c1OC	i
13	O=C(C[C@H]1NC(=O)c2ccccc2NC1=O)Nc1nc(-c2ccncc2)cs1	?
14	CCC(C)NC(=O)c1ccc2c(=O)n(C)c3nnc(SCC(=O)NCc4ccccc4)n3c2c1 (stereo unspecified)	i
15	COc1cc2nc(N3CCN(C)CC3)nc(NC3CCN(Cc4ccccc4)CC3)c2cc1OC	+!
16	CC(C)OCCCn1c(=O)c2ccccc2n2c(CCC(=O)NCCc3ccccc3)nnc12	i
17	O=C(Cn1nc2n(CCc3ccccc3)c(=O)c3ccccc3n2c1=O)NCc1ccccc1Cl	i
18	CC(=O)OC12CC(C)C(O)C1/C=C(/COC1OC(CO)C(O)C(O)C1O)CCC1C(/C=C(\C)C2=O)C1(C)C (stereo unspecified)	i
19	Cc1ccc([C@@H]2CC=C(C(=O)O)[C@H](c3ccc(C(C)(C)C)cc3)N2S(=O)(=O)c2ccc(C)cc2)cc1	?
20	Cc1ccc(NC(=O)Cn2c(=O)oc3cc(S(=O)(=O)N4CCCCC4)ccc32)cc1C	i
21	Cc1cnc(C2CC2)n1C1CCN(S(=O)(=O)c2cccc(F)c2)CC1	i
22	Clc1ccc2oc([C@H]3CCN(Cc4ccccn4)C3)nc2c1	i
23	CCC(C)NC(=O)c1ccc2c(=O)n(CCC(C)C)c3nn(Cc4ccccc4C)c(=O)n3c2c1 (stereo unspecified)	i
24	COc1ccccc1CN1CC(c2noc(CCC(=O)c3ccc(C)cc3)n2)CC1=O (stereo unspecified)	i
25	Oc1cccc(Nc2ccnc3cc(-c4cccc(CN5CCOCC5)c4)sc23)c1	?
26	CCOc1cc(CNC2CCCC2)cc(Cl)c1OCc1ccc(Cl)cc1	i
27	CS(=O)(=O)N1CCN2C(=O)N(C3CCCCC3)C[C@H]2C1	i
28	Cn1c2c(c3ccccc31)C(C(=O)NCc1ccccc1)N(Cc1ccccc1Cl)C(=O)CS2 (stereo unspecified)	i
29	COc1cccc(NS(=O)(=O)c2cc3c(cc2C)n(C)c(=O)n3C)c1	i
30	COC(=O)c1ncn2c1C(=O)N(Cc1ccccc1Cl)C(C)(C(=O)NCc1ccccc1)C2 (stereo unspecified)	i
31	CCC(C)NC(=O)c1ccc2c(=O)n(C)c3nn(CC(=O)c4ccccc4)c(=O)n3c2c1 (stereo unspecified)	i
32	CC1CCCCC1NC(=O)C1(C)Cn2c(cc3sccc32)C(=O)N1Cc1ccccc1Cl (stereo unspecified)	i
33	Cc1ccc(NC(=O)CSc2nnc3n(CC(C)C)c(=O)c4cc(F)ccc4n23)c(Cl)c1	i
34	CCOc1ccc(CN2C(=O)c3nc4ccccc4n3CC2(C)C(=O)NC2CCCCC2C)cc1 (stereo unspecified)	i
35	COc1ccc2c(c1)C(COCc1ccc(C(=O)O)cc1)=CC(C)(C)CO2	i
36	CC(C)(C)c1cc2n(n1)CC(C)(C(=O)NC1CCCCCC1)N(c1ccc(F)cc1F)C2=O (stereo unspecified)	i
37	CCCCN1C(=O)c2c(NC(C)=O)c3cc(OC)ccc3n2CC1(C)C(=O)NC1CCCCC1 (stereo unspecified)	i
38	O=C(c1cccs1)C1CCCN(Cc2nc(CCc3ccccc3)no2)C1 (stereo unspecified)	i
39	O=C(Cn1c(=O)oc2ccccc21)N1CC2CC(C1)[C@H]1CCCC(=O)N1C2 (stereo partly specified)	i
40	Cc1ccccc1CN1C(=O)c2cc3sccc3n2CC1(C)C(=O)NC1CCCCC1 (stereo unspecified)	i
41	O=C(CCc1nnc2n(Cc3ccc(F)cc3)c(=O)c3ccccc3n12)N1CCN(Cc2ccccc2)CC1	i
42	CC(C)Oc1cccc(-c2nnc(CCC(=O)NCCc3cccs3)c(=O)[nH]2)c1	i
43	CCCn1c(=O)c2ccc(C(=O)NC3CCCC3)cc2n2c(SCC(=O)c3ccc(OC)cc3)nnc12	i
44	CN(C)Cc1c(C(=O)NCCOc2ccc(C(=O)NO)cc2)oc2ccccc12	?
45	C=C(C(=O)O)[C@@H]1CC=C2CCC[C@H](C)[C@@]2(C)C1	i
46	Cc1cc(-c2cnc(N)c3c(-c4ccc5scnc5c4)csc23)n(C)n1	?
47	CCn1ccc(C(=O)N2CC[C@H](c3nc(C)no3)[C@H](NC(=O)C3CC3)C2)n1	i
48	Cc1ccc(N2C(=O)CSc3c(c4ccccc4n3C)C2C(=O)NCc2ccccc2)cc1Cl (stereo unspecified)	i
49	Cc1ccc(CNC(=O)CN2C(=O)C(c3ccccc3)=NC23CCCCC3)cc1	i
50	CC(CCc1ccccc1)N1C(=O)c2cc3sccc3n2CC1(C)C(=O)NC1CCCCCC1 (stereo unspecified)	i
51	Cn1c(=O)c2ccc(C(=O)NC3CCCCC3)cc2n2c(=O)n(CC(=O)c3ccc(Cl)cc3)nc12	i
52	CC1(C(=O)NC2CCCCC2)Cn2c(ccc2-c2ccccc2)C(=O)N1CCc1ccc(Cl)cc1 (stereo unspecified)	i
53	COc1ccccc1CNc1nc2c(-c3ccc(Cl)cc3)nnn2c2ccccc12	i
54	COc1ccc(CN2C(=O)c3cc4ccccc4n3CC2(C)C(=O)NCCCOC(C)C)c(OC)c1 (stereo unspecified)	i
55	CN(C)CC1(O)CCN(C(=O)Cn2cc(C(=O)C3CC3)c3ccccc32)C1 (stereo unspecified)	?
56	COc1ccc(Cl)cc1NC(=O)Cn1nc2n(CCC(C)C)c(=O)c3ccccc3n2c1=O	i
57	O=C(NCc1ccc(Oc2ccccc2)cc1)c1nc(-c2cc(Br)c(O)c(Br)c2)no1	+
58	CCCn1c(=O)c2ccccc2n2c(SCC(=O)Nc3cccc(C)c3)nnc12	i
59	Cc1cc2c(cc3n2CC(C)(C(=O)NC2CCCCC2)N(C2CCCCCC2)C3=O)o1 (stereo unspecified)	i
60	CC1(C)CC2C(O)C3=C(CC(C)(O)C2C1)C(=O)OC3O (stereo unspecified)	i

# The results go on.
no.	compound	Methyltransferases
61	Cc1ccc(C(=O)N2CCCC(n3cc(-c4nc(C5CC5)no4)nn3)C2)s1 (stereo unspecified)	i
62	CCOC(=O)Nc1nc2ccccc2[nH]1	i
63	COc1cccc(C2c3cccn3-c3sc4c(c3CN2C(=O)NCc2ccccc2)CCCC4)c1 (stereo unspecified)	i
64	Cc1ccc(CN2CC(=O)N(Cc3ccc(Cl)cc3)c3ccccc3S2(=O)=O)cc1	i
65	CCCC1c2cccn2CCN1C(=O)Nc1ccccc1C (stereo unspecified)	i
66	CC(C)NC(=O)c1ccc2c(=O)n(C(C)C)c3nn(CC(=O)NC(C)(C)C)c(=O)n3c2c1	i
67	Cc1ccccc1CNC[C@H]1O[C@@H]2C[C@@H](CC(=O)NCc3nccn3C)O[C@@H]2[C@@H]1O	i
68	CCC(C)NC(=O)CSc1nnc2n(CC(C)C)c(=O)c3ccccc3n12 (stereo unspecified)	i
69	CC(=O)N1CCN(Cc2nnc(C(=O)N3CCC[C@@H]3c3cccc(F)c3)n2-c2ccccc2)CC1	i
70	O=C(CCc1ccncc1)NNC(=O)N1Cc2ccccc2Oc2ccc(Cl)cc21	i
71	O=C1C[C@]23C=CCN4CCC5c6cc7c(cc6N1[C@@]5(CC2)C43)OCO7 (stereo partly specified)	?
72	CCc1cc2c(cc3n2CC(C)(C(=O)NC2CCC(C)CC2)N(Cc2ccccc2Cl)C3=O)s1 (stereo unspecified)	i
73	COc1cc2nc(-c3cc4c(c(OC)c3)OCCNC4)cc(C)c2cc1OC	i
74	CN(C)S(=O)(=O)c1cccc(-c2nnc(-c3ccccc3Cl)o2)c1	i
75	O=C(NCCc1ccccc1)c1ccc2c(=O)nc3c(-c4cccc(F)c4)n[nH]n3c2c1	i
76	COc1ccc(N(C(=O)C2CCCCC2)S(=O)(=O)c2ccc3c(c2)n(C)c(=O)n3C)cc1	i
77	CC1=NOC2(CCN(C(=O)c3ccccc3)C2)C1 (stereo unspecified)	i
78	O=[S+]([O-])(c1cccs1)N1CCn2c(nnc2C2CC2)C1	i
79	CC(C)CCNC(=O)CCc1nnc2n(CCC(C)C)c(=O)c3ccccc3n12	i
80	CC1OC(OC2C(O)COC(O[C@@H]3[C@@H](O)[C@@H](O)[C@H](OC4C(OC(=O)[C@]56CCC(C)(C)CC5C5=CCC7[C@@]8(C)C[C@H](O)[C@H](OC9OC(CO)C(O)C(O)C9O)[C@@](C)(CO)C8[C@H](O)C[C@@]7(C)[C@]5(C)CC6)OCC(O)C4O)O[C@H]3C)C2O)C(O)C(O)C1O (stereo partly specified)	i

# (list continues)
no.	SMILES	Methyltransferases
81	CCCn1c(=O)c2ccc(C(=O)NC(C)CC)cc2n2c(=O)n(CC(=O)c3ccc(OC)cc3)nc12 (stereo unspecified)	i
82	CCOc1ccc(C(=O)CSc2nnc3n(C)c(=O)c4ccc(C(=O)NC5CCCC5)cc4n23)cc1	i
83	C#CCOc1ccc2c(c1)c(-c1ccc(C(C)C)cc1)nc(=O)n2C(C)C	?
84	COc1ccc(NC(=O)CSc2nnc3n(CCC(C)C)c(=O)c4ccccc4n23)cc1	i
85	CCc1ccc(N2C(=O)c3cc4ccc(OC)cc4n3CC2(C)C(=O)NC2CCCC2)cc1 (stereo unspecified)	i
86	COc1cc(N2CCOCC2)ccc1NC(=O)c1csc(-c2cccnc2)n1	i
87	CC1CCN(S(=O)(=O)c2ccc3c(ccn3CC(=O)NC3CCCc4ccccc43)c2)CC1 (stereo unspecified)	i
88	CC(C)CNC(=O)c1ccc2c(=O)n(CC(C)C)c3nn(Cc4ccccc4)c(=O)n3c2c1	i
89	COc1ccccc1CN1C(=O)c2cc3sccc3n2CC1(C)C(=O)NC1CCCCCCC1 (stereo unspecified)	i
90	Cc1csc(NC(=O)c2ccc3c(c2)OCC(=O)N(C)C3)n1	i
91	Cc1cccc(C)c1NC(=O)Cn1c(=O)oc2cc(S(=O)(=O)N3CC(C)CC(C)C3)ccc21 (stereo unspecified)	i
92	CCCn1c(=O)c2ccc(Cl)cc2n2c(SCC(=O)Nc3cccc(Cl)c3)nnc12	i
93	COc1ccc(CCN2Cc3cc(NC(=O)Cc4cccs4)ccc3OCC2=O)cc1	i
94	O=C(Nc1ccc(Br)cc1)N1Cc2c(sc3c2CCCC3)-n2cccc2C1c1ccccc1 (stereo unspecified)	i
95	COc1ccc(OC)c(S(=O)(=O)N2CCC3(CCC3N3CCOCC3)CC2)c1 (stereo unspecified)	i
96	COc1ccccc1CNc1nc2c(-c3ccccc3)nnn2c2ccccc12	i

# Gathered by group: those above containing an NH in an aromatic ring (four)
no.	SMILES	Methyltransferases
9	CC1(CNC(=O)c2n[nH]c3ccccc23)CCOCC1	i
42	CC(C)Oc1cccc(-c2nnc(CCC(=O)NCCc3cccs3)c(=O)[nH]2)c1	i
62	CCOC(=O)Nc1nc2ccccc2[nH]1	i
75	O=C(NCCc1ccccc1)c1ccc2c(=O)nc3c(-c4cccc(F)c4)n[nH]n3c2c1	i

# Later entries.
no.	SMILES	Methyltransferases
97	CCCN(CCC)S(=O)(=O)c1cc2[nH]c(=O)[nH]c2cc1C	i
98	CC(C)Cn1c(=O)c2ccc(C(=O)NC3CCCCC3)cc2n2c(=O)n(Cc3ccccc3F)nc12	i
99	CC(C)CCn1c(=O)c2ccc(C(=O)NC3CCCC3)cc2n2c(=O)[nH]nc12	i
100	CC/C=C\C[C@H]1C(=O)C=C[C@@H]1CCCCCCCC(=O)O	i
101	CC1(C(=O)NC2CCCCCCC2)Cn2c(cc3occc32)C(=O)N1Cc1cccc(Cl)c1 (stereo unspecified)	i
102	CC1CCCCC1NC(=O)C1c2cccn2CC(=O)N1c1ccc(Cc2ccncc2)cc1 (stereo unspecified)	i
103	CC(=O)Nc1c2n(c3ccc(F)cc13)CC(C)(C(=O)NC1CCCCC1)N(Cc1ccccc1)C2=O (stereo unspecified)	i
104	COc1cccc(CNC(=O)c2ncn3c2C(=O)N(C2CC2)C(C)(C(=O)NCc2cccc(C)c2)C3)c1 (stereo unspecified)	i
105	COC(=O)[C@H](c1ccccc1Cl)N1CCC2SC(=O)C=C2C1 (stereo partly specified)	i
106	CCC(C)NC(=O)c1ccc2c(=O)n(CC(C)C)c3nn(Cc4ccccc4Cl)c(=O)n3c2c1 (stereo unspecified)	i
107	COc1c/c(=C2\C=c3ccccc3=N2)[nH]/c1=C/c1[nH]c(C)cc1C	?

# Part of the list above in another layout:
(5) CC(C)NC(=O)c1ccccc1OCC1CCCN(Cc2cccnc2)C1 (stereo unspecified)
  Methyltransferases = i

(6) Cc1nnc([C@H]2CCN(Cc3cnc4ccccc4c3)C2)o1
  Methyltransferases = i

(7) COCCOCc1nc(C2CCCN2C(=O)Cc2cccc(F)c2)no1 (stereo unspecified)
  Methyltransferases = i

(8) COc1ccc(-c2cc3n(n2)CC(C)(C(=O)NC2CCCCC2)N(C2CCCCCC2)C3=O)cc1 (stereo unspecified)
  Methyltransferases = i
